TRPML1 inh: inhibitors of human TRPML1 channel. activity change, negative = inhibition, % (test concentration not listed). TRPML1-inducible cells, Ca2+ dye fluorescence, FDSS; active compounds read low; inhibition of EC80 agonist-evoked calcium signal. Q9GZU1. 0.02% of 390,000 active; in the data active means activity change below about -50%; inconclusive means about -30% to -50%; inactive means above about -30%;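 also: stimulus is agonist 54-4 at its EC80 concentration; % is scaled to controls: 0 for no effect and ±100 for the full control effect; compound concentration not given in the record; the text of the record puts the active cut at -80%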
Target sequence (Q9GZU1 whole entry, looked up): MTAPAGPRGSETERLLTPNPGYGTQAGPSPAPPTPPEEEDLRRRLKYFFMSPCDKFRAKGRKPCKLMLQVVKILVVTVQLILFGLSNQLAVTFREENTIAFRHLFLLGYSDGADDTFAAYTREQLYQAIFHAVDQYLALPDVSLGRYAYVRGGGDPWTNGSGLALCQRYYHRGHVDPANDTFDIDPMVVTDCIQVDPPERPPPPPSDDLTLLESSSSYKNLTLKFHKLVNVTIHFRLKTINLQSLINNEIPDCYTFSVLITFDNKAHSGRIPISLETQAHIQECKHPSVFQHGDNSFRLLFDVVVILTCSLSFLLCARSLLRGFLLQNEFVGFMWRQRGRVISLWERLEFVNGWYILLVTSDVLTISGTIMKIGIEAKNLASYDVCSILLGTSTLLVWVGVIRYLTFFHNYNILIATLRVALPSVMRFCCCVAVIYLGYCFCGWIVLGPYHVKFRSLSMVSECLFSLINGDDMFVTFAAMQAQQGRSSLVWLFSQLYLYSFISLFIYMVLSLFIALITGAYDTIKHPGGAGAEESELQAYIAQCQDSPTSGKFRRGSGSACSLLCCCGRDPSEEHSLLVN
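TRPML1-DL cells, Tet-induced overnight (~16 h, 37 °C) at 1,500 cells/well, were loaded with Ca8 no-wash dye plus quencher for 45-90 min at room temperature. Compounds were pinned during FDSS kinetic reading; agonist 54-4 at EC80 (4 uM final) then added.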
ClpP mod: qHTS Assay for Activators of ClpP. Potency, µM (top dose mostly 57.5 µM), inactives show at the top dose activity change, negative = active. 1.9% of 340,000 active. ATP-dependent Clp protease proteolytic subunit (Bacillus subtilis (strain 168)), P80244. purified B. subtilis ClpP, FRET peptide cleavage, 20 min; active = well fitted falling curve with a large enough effect; inconclusive = small, poorly fitted or top-dose-only effect; inactive = no such curve, though single readings can be large or run the other way; also: potency is read from the fitted curve at half-maximal effect; the source files actives as falling curves though it sought activators and does not explain the sign; nearly all actives have a fitted effect of over 65% in size; many hits overshoot -100%
Target sequence (P80244 whole entry, looked up): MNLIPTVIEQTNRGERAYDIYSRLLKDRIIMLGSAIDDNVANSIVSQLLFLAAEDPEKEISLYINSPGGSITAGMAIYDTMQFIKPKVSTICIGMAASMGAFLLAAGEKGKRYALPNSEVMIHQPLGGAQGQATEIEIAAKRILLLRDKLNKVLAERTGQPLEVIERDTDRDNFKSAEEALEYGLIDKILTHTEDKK
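ClpP 10 microg/mL final, pH 8 Tris/KCl buffer with BSA, glycerol, Tween-20; compound pinned in; FRET-FV substrate; RT 20 min; Ex320/Em430; ΔFRET vs ADEP 5.8 microM, DMSO, no enzyme.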
* marks the source's active call; other numbers are inactive results; ? = inconclusive.

Under each structure: TRPML1 inh	ClpP mod
- CCNC(=O)CCSc1nnc(-c2ccc(O)cc2)o1
    6.3	-8.0%
- Cc1cc(C)cc(NC(=O)c2sc3nc(-c4ccccc4)cn3c2C)c1
    64.7	-21.0%
- CC(=O)c1cccc(NC(=O)c2ccc(Cl)c(S(=O)(=O)N3CCOCC3)c2)c1
    -2.6	-2.1%
- CCc1ccc(Sc2cc(C(=O)NCc3cccc(OC)c3)c3ccccc3n2)cc1
    19.1	?
- COc1cccc(COC(=O)c2ccc(-c3nnn(Cc4ccccc4)n3)cc2)c1
    -1.3	-2.5%
- Cc1ccc(C)c(NC(=O)N2CCc3cc(S(=O)(=O)N4CCC(C)CC4)ccc32)c1
    -3.8	14.4%
- Cc1ccc(CNC(=O)Cn2c3ncccc3c(=O)n2-c2ccccc2)cc1
    3.6	4.1%
- CCN1CCc2c(sc(-n3cccc3)c2C(CCC(C)C)NC(=O)NCCC(=O)OC)C1 (stereo not drawn)
    -3.7	4.8%
- O=C(Nc1cccc(-c2nc3ncccc3o2)c1)c1ccc(-c2cccc(Cl)c2Cl)o1
    8.5	-8.5%
- CCOc1ccc(N(C)C(=O)c2oc(=O)c3ccccc3c2-c2ccccc2)cc1
    28.1	-0.5%
- Cn1c(=O)c2c(SCC(=O)Nc3ccc(F)cc3F)nc(C3CCCC3)nc2n(C)c1=O
    8.6	1.1%
- COc1ccc(NC(=O)C2CCCN(S(=O)(=O)c3cccs3)C2)cc1 (stereo not drawn)
    -3.6	0.9%
- CCc1cccc(C)c1NC(=O)CN(C)S(=O)(=O)c1cccc2nsnc12
    3.3	1.5%
- O=C(CSc1nc2ccccc2nc1Cc1ccc(Cl)cc1)Nc1ccc2c(c1)OCO2
    5.0	2.5%
- O=C(CCn1c(=O)c2sccc2n(Cc2cccc(F)c2)c1=O)NCc1ccc2c(c1)OCO2
    -23.5	-0.3%
- O=C(NCc1ccc(Cl)cc1)c1cc2cccc3c2n1CCS3
    34.7	22.4µM*
- COc1ccc(CCNC(=O)c2ccc3[nH]c(C)c(C)c3c2)cc1OC
    -1.7	-3.0%
- CCOC(=O)c1c(NC(=O)COc2c(C)cc(Cl)cc2Cl)sc2c1CCCC2
    -19.2	-3.6%
- COc1ccc(C(=O)NCC(c2ccc(N(C)C)cc2)N2CCCC2)cc1 (stereo not drawn)
    27.2	1.8%
- COc1ccccc1CNC(=O)C1CCN(S(=O)(=O)c2c(C)noc2/C=C/c2c(C)cc(C)cc2C)CC1
    -11.0	-1.2%

Additional structures follow.
Under each structure: TRPML1 inh	ClpP mod
- O=C(Nc1cccc(OCc2cc(=O)n3ccccc3n2)c1)Nc1cccc(C(F)(F)F)c1
    -13.5	-6.3%
- CCS(=O)(=O)Nc1cc(-c2cn3ccc(C)cc3n2)ccc1C
    5.5	4.1%
- COc1ccc(NC(=O)CSc2nc(-c3cccc(C)c3)[nH]c2-c2ccccc2)cc1OC
    -2.5	-18.9%
- Cc1ccc(NC(=O)C2CCN(S(=O)(=O)c3cccc4nonc34)CC2)cc1C
    33.0	0.7%
- Cc1ccc(CCNC(=O)c2ccc(CSCc3ccc(C)cc3)o2)cc1
    14.6	-1.3%
- Cn1ccc2c(N3CCCC3)cc3c(c21)C1CCC3C1 (stereo not drawn)
    -0.2	-5.0%
- COc1ccc(C(=O)NCC(c2ccc(N(C)C)cc2)N2CCc3ccccc32)cc1OC (stereo not drawn)
    -11.4	-20.7%
- CCN1CCN(C(=O)c2ccc3c(c2)N(Cc2cccc(F)c2)C(=O)c2ccccc2S3)CC1
    24.0	0.4%
- Cc1ccccc1Cn1c(=O)n(Cc2ccco2)c(=O)c2oc3ccccc3c21
    8.7	-1.7%
- CC1CCc2onc(C(=O)N3CCN(c4ccc(F)cc4)CC3)c2C1 (stereo not drawn)
    -13.4	-3.8%
- COc1ccc(CCNC(=O)CCCn2c(=O)c3ccccc3n(CC(=O)Nc3ccc(C)cc3Cl)c2=O)cc1OC
    -12.1	-4.1%
- CCOC(=O)c1cc(S(=O)(=O)NCc2ccc(Cl)cc2)[nH]n1
    14.5	-1.4%
- Cc1ccc(NC(=O)C2CCN(S(=O)(=O)c3cccc4nonc34)CC2)c(Cl)c1
    -20.7	-1.5%
- COc1ccc(/C=C/C(=O)N2CCC(c3nc4ccccc4o3)CC2)cc1
    39.3	-1.7%
- NC(c1ccccc1)c1csc(NC(=O)NCC2CCCCC2)n1 (stereo not drawn)
    -3.3	0.5%
- CC(=O)N1CCc2cc(S(=O)(=O)NC(Cc3ccccc3)C(=O)Nc3cc(C)cc(C)c3)ccc21 (stereo not drawn)
    2.8	0.8%
- Cc1ccc(-n2ncc3c(N4CCC(C(N)=O)CC4)ncnc32)cc1
    10.3	4.6%
- Cc1nc2ccn(Cc3ccccc3)c(=O)c2cc1C(=O)N1CCN(c2ccccc2F)CC1
    -1.8	4.1%
- CCOCCCn1c(=N)c(C(=O)NCC2CCCO2)cc2c(=O)n3cc(C)ccc3nc21 (stereo not drawn)
    -7.3	4.4%
- Cc1cccc(-c2noc(CNC(=O)c3ccc(C)cc3C)n2)c1
    3.8	-4.9%

(list continues)
Under each structure: TRPML1 inh	ClpP mod
- COc1cc(CN(C(=O)c2ccccc2Br)c2ccccn2)cc(OC)c1OC
    0.6	0.0%
- COc1cccc(OC)c1C(=O)Nc1cccc(-c2nc3cc(C)cc(C)c3o2)c1
    -3.4	?
- CCOC(=O)C1CCCN(S(=O)(=O)c2cc(-c3cc(C)no3)ccc2OC)C1 (stereo not drawn)
    11.1	-1.7%
- CCN(CC)c1ccc(C2C(C(=O)Nc3ccccc3C)=C(C)Nc3ncnn32)cc1 (stereo not drawn)
    -11.1	0.6%
- CCOc1ccccc1NC(=O)CSc1nc2c(oc3ccccc32)c(=O)n1Cc1ccco1
    -11.3	-17.6%
- Cc1ccc(C(=O)NCC(c2ccc3c(c2)OCO3)N2CCN(c3ccc(F)cc3)CC2)cc1 (stereo not drawn)
    1.4	-11.0%
- COc1cccc(N2CCN(S(=O)(=O)c3ccc(-c4cc(C(F)(F)F)on4)s3)CC2)c1
    -16.2	0.7%
- O=S(=O)(NCCc1csc2nc(-c3ccc(F)cc3)nn12)c1ccc(Br)cc1
    11.4	2.9%
- COc1cccc2c1cc1c(=O)n(CC(=O)N3CCN(c4cccc(Cl)c4)CC3)nc(C)n12
    -13.0	?
- Cc1cccc(N(CC(=O)NCCSCc2cccc(Cl)c2)S(=O)(=O)c2ccccc2)c1C
    20.6	-2.5%
- COc1ccccc1Cc1c(-c2ccc(OC)c(OC)c2)nc2ccc(C)cn12
    28.9	4.1%
- COc1ccc(CNC(=O)CN(C)S(=O)(=O)c2ccc3nc(C)sc3c2)cc1
    5.1	0.6%
- COC(=O)C1=C(C)NC(=O)NC1c1cn(-c2ccccc2)nc1-c1ccc(OC)c(Cl)c1 (stereo not drawn)
    10.0	-2.2%
- CCC(=O)N1CCc2cc(Br)cc(S(=O)(=O)NCc3cccc(OC)c3)c21
    -2.4	1.4%
- Cn1c(=O)c2c(SCC(=O)NCC3CCCO3)nc(-c3ccccc3F)nc2n(C)c1=O (stereo not drawn)
    -0.8	-1.1%
- Cc1ccc(-c2cn3c(n2)sc2cc(C(=O)NC(C)C45CC6CC(CC(C6)C4)C5)ccc23)cc1 (stereo not drawn)
    27.6	-6.2%
- Cc1ccc(NC(=O)Cn2c(=O)nc(-c3ccccc3)c3ccccc32)cc1
    -5.7	-10.3%
- CCCCNC(=O)CN1C(=O)CSc2ccc(S(=O)(=O)N3CCC(C)CC3)cc21
    14.5	-4.4%
- Fc1ccc(-c2noc3ncnc(N4CCN(c5ccccc5)CC4)c23)cc1
    6.0	-12.3%
- Cc1cccc(CNC(=O)C2CCN(S(=O)(=O)c3ccc4c(c3)CCCN4C(=O)C3CCC3)CC2)c1
    24.1	1.3%

Following part:
Under each structure: TRPML1 inh	ClpP mod
- CCOCCCn1c(=N)c(C(=O)NCc2ccco2)cc2c(=O)n3ccccc3nc21
    6.6	4.3%
- Cc1ccc(CNC(=O)c2cc(=O)c3cc(C)c(C)cc3o2)cc1
    -8.5	-0.4%
- CCOC(=O)c1cc(-c2ccc(C)cc2)n(CC(=O)Nc2ccc(OC)c(Cl)c2)c1C
    4.0	-8.5%
- Cc1oc(-c2ccc(C(=O)NCCc3ccc(Cl)cc3)cc2)nc1CSc1ccccc1
    -16.5	?
- COc1ccc(S(=O)(=O)N2CCCCC2c2cc(C(=O)Nc3ccc(F)c(Cl)c3)no2)cc1 (stereo not drawn)
    44.5	-7.2%
- Cc1ccccc1CNC(=O)C(=O)NCC(c1ccco1)S(=O)(=O)c1ccccc1 (stereo not drawn)
    -9.2	-0.6%
- COc1ccccc1NC(=O)Cn1c(=O)n(CCC(=O)NCC2CCCO2)c(=O)c2cc(OC)c(OC)cc21 (stereo not drawn)
    -1.2	-17.0%
- CCCOc1ccc(C(=O)Nc2ccc3oc(-c4cccc(Cl)c4Cl)nc3c2)cc1
    -2.0	?
- Cc1ccc2c(=O)cc(C(=O)Nc3c(C)n(C)n(-c4ccccc4)c3=O)oc2c1
    -25.5	0.0%
- COc1ccccc1-c1noc(CCC(=O)Nc2ccc(C)cc2C)n1
    5.9	0.1%
- COc1cccc(CNC(=O)CN2C(=O)COc3ccc(S(=O)(=O)Nc4ccccc4)cc32)c1
    -4.2	0.3%
- CCOC(=O)C1=C[C@@H](c2ccccc2)N(S(=O)(=O)c2ccc(C)cc2)[C@H]1c1ccc(OC)cc1
    -0.9	-2.6%
- CCOc1ccccc1NC(=O)c1nnn(CC(=O)Nc2ccccc2CC)c1N
    23.2	3.9%
- CCCN(Cc1cccs1)C(=O)Nc1ccc(Br)cc1F
    -18.7	0.6%
- CCN(C(=O)Cn1c(=O)oc2cc(S(=O)(=O)N3CCCCCC3)ccc21)c1cccc(C)c1
    -12.2	-18.4%
- COc1ccc(-c2[nH]nc3nc(-c4cc(OC)c(OC)c(OC)c4)cc(C(=O)O)c23)cc1
    0.2	-1.2%
- CCOc1ccccc1CNC(=O)c1c(C)oc2ncnc(N3CCOCC3)c12
    -5.7	0.0%
- Cc1cc(C)cc(NS(=O)(=O)c2ccc3[nH]cc(C(=O)NCc4ccccc4Cl)c(=O)c3c2)c1
    11.8	-14.1%
- O=C(c1cc(S(=O)(=O)N2CCCC2)c[nH]1)N1CCN(c2cccc(Cl)c2)CC1
    -4.4	-3.3%
- Cc1cccc(C2NC(=O)c3c(sc4c3CCN(C)C4)N2)c1O (stereo not drawn)
    2.0	3.8%

(next part)
Under each structure: TRPML1 inh	ClpP mod
- Cc1ccc(/C=C/C(=O)Nc2nc(-c3cccs3)ns2)cc1
    14.3	?
- COC(=O)Cc1c(C)c2cc3c(c(C)c2oc1=O)OCN(CCc1ccc(F)cc1)C3
    17.0	4.1%
- Cc1ccc(-n2ncc(C(=O)N3CCN(C4CCCCC4)CC3)c2C2CCN(C(=O)OC(C)(C)C)CC2)cc1
    3.6	1.3%
- COc1ccc(-c2noc(CSc3nc4ccc(C)cc4[nH]3)n2)cc1
    -7.8	-1.5%
- O=C(CCCCCn1c(=O)[nH]c2ccccc2c1=O)N1CCN(c2ccc(Cl)cc2)CC1
    5.9	?
- COc1ccc2c(c1)CC(C(=O)NCCCN1CCN(c3ccc(F)cc3)CC1)CO2 (stereo not drawn)
    -17.0	-1.6%
- Cc1nc2c(c(C)c1CCC(=O)NCc1ccc(Cl)cc1)c(=O)n(C)c(=O)n2C
    -14.6	-4.2%
- CCC(Sc1nc2c(sc3ccccc32)c(=O)n1CCCC(=O)NC1CCCC1)C(=O)Nc1cccc(OC)c1 (stereo not drawn)
    -8.6	-4.8%
- Cc1ccc(C(=O)NCC(c2cccs2)S(=O)(=O)c2cccs2)cc1 (stereo not drawn)
    -5.0	0.3%
- COc1ccc(N2CCN(c3nc4ccc(C)cc4n4nnnc34)CC2)cc1
    4.4	-0.6%
- O=C(Nc1ccc(OC(F)(F)F)cc1)C1CCCN(S(=O)(=O)c2ccc(Br)s2)C1 (stereo not drawn)
    -8.3	3.9%
- Cc1ccccc1CN1CCN(C(=O)[C@H]2O[C@@H](n3ccc(=O)[nH]c3=O)[C@H](O)[C@@H]2O)CC1
    -3.7	1.7%
- O=C(Nc1cc(Cl)ccc1Cl)c1cc(S(=O)(=O)NCCc2ccccc2)ccc1F
    3.8	76.6%
- CCC(C)c1ccc2oc(-c3ccc(NC(=O)c4cc5ccccc5o4)cc3)nc2c1 (stereo not drawn)
    23.9	-1.4%
- COc1ccc(NC(=O)CCc2nc3c(C)nn(-c4ccc(C)cc4)c3n(C)c2=O)c(OC)c1
    -11.6	0.8%
- O=C(Nc1ccccc1F)C(Cc1ccccc1)n1cccc1 (stereo not drawn)
    -3.7	-0.9%
- Cc1c(Cl)cccc1NC(=O)Cn1cc2c(n1)CCCC2
    11.7	-3.8%
- COc1ccc(-n2cc(C(=O)NCc3ccc(Cl)cc3)c3ccccc3c2=O)cc1
    15.2	-27.2%

Some of the entries above, reformatted:
molecule	TRPML1 inh	ClpP mod
Cc1ccc(C(=O)NCC(c2cccs2)S(=O)(=O)c2cccs2)cc1 (stereo not drawn)	-5.0	0.3%
Cc1ccccc1CN1CCN(C(=O)[C@H]2O[C@@H](n3ccc(=O)[nH]c3=O)[C@H](O)[C@@H]2O)CC1	-3.7	1.7%
Cc1ccc(-n2ncc(C(=O)N3CCN(C4CCCCC4)CC3)c2C2CCN(C(=O)OC(C)(C)C)CC2)cc1	3.6	1.3%

Some of the compounds tested (hit frequency here may not be typical).
